Ecoli rRNA inh – reduced GFP signal of wild-type E. coli, primary screen, bacterial rRNA inhibitor project, GFP/RFP fluorescence, OD600, single point; E. coli WT GFP vs humanized-ribosome RFP mutants, 24 h; stronger effect = lower value; DMSO median 0, no signal -100; GFP signal change (wild-type ribosome), % (test concentration not listed); 350,000 tested, 1.6% active; AID 720706, 2013;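 active = significant combined selectivity score with lowered wild-type GFP, culture density cut under 30%, mutant RFP and density less affected; inactive = any of these conditions unmet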; also: one replicate is shown; some compounds called inactive have numbers as strong as hits
HNF4A DNA FP – change in binding of human HNF4A to DNA, primary screen, biochemical, fluorescence polarization, FITC-DNA; Hepatocyte nuclear factor 4-alpha (Homo sapiens), P41235; 1 h; activity change, % at 10 µM; 360,000 tested, 0.3% active; AID 1224865, 2016; in the data active = activity change above about 30%, passing the limit was not always enough;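 also: controls were the assay level and a saturating level of protein; the project sought stronger binding though the title names inhibitors; some compounds called inactive have numbers as strong as hits; positive values seem to mean higher polarization but the record does not say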
Target sequence (P41235 whole entry, looked up): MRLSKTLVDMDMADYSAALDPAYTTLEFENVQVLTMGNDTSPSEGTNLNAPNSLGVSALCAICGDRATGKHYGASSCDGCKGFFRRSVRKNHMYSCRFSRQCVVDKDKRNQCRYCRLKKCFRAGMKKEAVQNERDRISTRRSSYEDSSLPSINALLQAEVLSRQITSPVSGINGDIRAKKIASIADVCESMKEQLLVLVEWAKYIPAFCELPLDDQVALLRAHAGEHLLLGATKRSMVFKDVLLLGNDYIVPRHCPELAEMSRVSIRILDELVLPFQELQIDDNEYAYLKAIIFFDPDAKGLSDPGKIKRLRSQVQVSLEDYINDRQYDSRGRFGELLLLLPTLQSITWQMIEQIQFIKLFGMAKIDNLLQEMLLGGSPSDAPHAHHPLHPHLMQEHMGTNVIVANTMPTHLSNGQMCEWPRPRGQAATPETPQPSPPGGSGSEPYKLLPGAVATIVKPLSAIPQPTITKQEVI
Vif A3G – inhibitors of Vif binding to APOBEC3G peptide, primary screen, biochemical, TR-FRET, GST-Vif 1-94, biotin-A3G peptide, dose response retest (AID 1117319); inhibition, %, or IC50 in µM where a hit was titrated; 260,000 tested, 0.57% active; TR-FRET GST-Vif / biotin-A3G peptide binding; higher % means a stronger effect; test concentration not given here; strong numbers were not always called active;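 active = above the screen mean plus three standard deviations and confirmed in dose response; inconclusive = results disagree or hit not tested in dose response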;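 also: Vif residues 1-94 fused to GST binding biotinylated APOBEC3G peptide 110-148; 0% = full assay without inhibitor and 100% = GST in place of GST-Vif; retest series ran down from 100 µM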
FGF22 binding – binders of human FGF22 protein, primary screen, FGF22 synaptogenesis inhibitor project, biophysical, thermal shift, single point. Fibroblast growth factor 22 (Homo sapiens), Q9HCT0. recombinant FGF22 thermal shift, SYPRO orange fluorescence; percent of sucrose octasulfate shift, DMSO zero. calls only at 9.99 µM. 340,000 tested, 1.5% active. AID 651658, 2012;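 active = melting point raised past a set limit in the mean and every replicate; inconclusive = no clear call; three in four hits are not shown here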
Target sequence (Q9HCT0 whole entry, looked up): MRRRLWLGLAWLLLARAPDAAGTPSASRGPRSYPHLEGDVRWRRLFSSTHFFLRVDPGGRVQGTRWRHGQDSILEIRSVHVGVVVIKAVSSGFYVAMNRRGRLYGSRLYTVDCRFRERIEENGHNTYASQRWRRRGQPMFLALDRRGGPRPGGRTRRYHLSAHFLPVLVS
AF4-AF9 inh – inhibitors of AF4 peptide binding to AF9, primary screen, biochemical, AlphaScreen, biotin-AF4 peptide, FLAG-AF9, single point. Protein AF-9 (Homo sapiens), P42568. inhibition, % at 10 µM. 350,000 tested, 0.47% active. AID 651704, 2012;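 active = every replicate reaching a set inhibition limit, whatever the replicate mean, cut at about 25% in these data; inconclusive = mean inhibition reaches that limit but some replicates miss it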;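 also: 0% = plate neutral control median and 100% = total signal loss; the record names both 10 and 1 µM as test concentration; the first replicate is given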
ALR inh – inhibitors of human ALR sulfhydryl oxidase, primary screen, biochemical, H2O2 detection, HRP-luminol luminescence, single point | FAD-linked sulfhydryl oxidase ALR (Homo sapiens), P55789 | purified ALR, DTT oxidation | inhibition, % (concentration not given with the values) | 290,000 tested, 3.8% active;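 active = mean and each replicate at 75% or more; inconclusive = only one of the two met; inactive = neither met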;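 also: stock transfer was 7.5 nL into about 7.5 µL; 0% = neutral wells and 100% = wells with inactivated enzyme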
Target sequence (P55789 whole entry, looked up): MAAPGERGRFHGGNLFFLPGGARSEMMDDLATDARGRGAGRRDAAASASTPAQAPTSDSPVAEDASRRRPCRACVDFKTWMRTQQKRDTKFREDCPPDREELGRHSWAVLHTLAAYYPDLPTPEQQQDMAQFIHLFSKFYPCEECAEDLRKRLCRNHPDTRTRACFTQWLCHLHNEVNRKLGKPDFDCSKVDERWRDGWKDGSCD
E coli growth – E. coli growth inhibition, primary screen, OD600; Escherichia coli growth, 23 h; stronger effect = lower value; OD600 absorbance (no concentration beside the values); 330,000 tested, 0.21% active;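 active = OD600 absorbance below the run mean of sample wells minus 3.6 SD, in any replicate, cut at about 0.56 in these data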;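 also: stock transfer was 300 nL into about 60 µL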
Ecoli rRNA inh OD600 – recorded beside Ecoli rRNA inh, whose call it bears; OD600 change, %; measured here: OD600 growth;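 optical density of the mix in the first replicate; 0 = DMSO median and -100 = no signal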
Ecoli rRNA inh RFP – recorded beside Ecoli rRNA inh, whose call it bears; RFP signal change, %; measured here: RFP humanized mutant strains;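 first replicate; 0 = DMSO median and -100 = no signal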
The depositor's hits bear a star; i = inactive; ? = inconclusive; · = no result given.

SMILES	Ecoli rRNA inh	Ecoli rRNA inh OD600	Ecoli rRNA inh RFP	HNF4A DNA FP	Vif A3G	FGF22 binding	AF4-AF9 inh	ALR inh	E coli growth
COc1ccc(S(=O)(=O)Nc2ccc3c(c2)C(=O)N([C@@H](C)CO)C[C@H](C)[C@H](CN(C)C(=O)Nc2ccc(C(F)(F)F)cc2)OCCCC[C@H](C)O3)cc1	6	3	-0.5	·	·	i	1.5	·	·
CSC(C(=O)c1cc2ccccc2o1)c1ccccc1 (centres undefined)	12	11	3.1	4.7	·	i	2.6	-8	·
Cc1cccc(OCC(=O)Nc2ccc3oc(=O)ccc3c2)c1	1	-8	-0.8	4.5	·	·	-3.7	·	0.68
O=C(NCC1CCCO1)c1ccc(NC(=O)c2ccc(Br)cc2)cc1 (centres undefined)	12	12	0.1	1.6	·	i	1.2	-3	0.66
COCCn1c(-c2ccc(OC)cc2)c(-c2ccc(OC)cc2)oc1=O	-15	-15	0.8	6.5	-5%	i	13	7	0.66
Cc1ccc(OCCCC(=O)Nc2ccc(N3CCOCC3)cc2)c(C)c1	·	·	·	0.9	?	·	·	-4	0.78
COCCn1c(SCC(=O)NCc2ccc3c(c2)OCO3)nnc1C(C)C	12	21	0.4	-0.7	·	i	0.0	-3	0.66
CCCc1cc(=O)oc2cc(C)cc(OCC(=O)O)c12	·	·	·	0.4	-7%	·	·	·	0.75
N#CCCN(Cc1ccccc1)S(=O)(=O)c1cccs1	3	-2	1.4	-0.2	1%	i	-2.9	·	0.66
CCOC(=O)C(C)n1cnc2c(oc3ccccc32)c1=O (centres undefined)	·	·	·	-0.6	-5%	·	·	·	0.73
C[C@@H]1NS(=O)(=O)c2ccc(F)cc2O[C@@H]1c1ccccc1	4	-18	-0.7	·	·	i	0.4	·	·
CN(C)CCNc1nc(S(=O)(=O)c2ccccc2)c(Cl)s1	4	-3	2.3	1.3	2%	i	0.3	-2	0.72
Cc1ccccc1OCC(=O)Nc1cc(S(=O)(=O)N2CCCCC2)ccc1N1CCN(C)CC1	-56	-73	-14	0.3	30%	i	19	-17	0.66
CC(C)(C)C1c2[nH]c3ccccc3c2CCN1Cc1cccc(OCCO)c1 (centres undefined)	-25	-22	1.6	2.6	-7%	i	7.0	10	0.7
CCc1ccc(C(=O)Nc2cc(C)ccc2F)s1	-10	-14	-6.0	-1.2	-4%	i	-1.0	-1	0.7
O=C(Cc1ccccc1)n1nc(-c2ccco2)nc1SCc1ccccc1	·	·	·	-5.5	5%	·	·	3	0.67
O=C(NCCc1ccccc1)c1ccc(-c2cccnc2)c2ccoc12	-37	-59	-4.3	9.1	·	i	-1.4	·	·
COC(=O)C1C2C=CC3(CN(c4cccc(C)c4)C(=O)C13)O2 (centres undefined)	·	·	·	-2.8	12%	·	·	-1	0.74
COc1ccc2nc(SCC(N)=O)cc(C)c2c1	·	·	·	3.3	-7%	·	·	13	0.74
CCC(=O)Nc1cccc(NC(=O)c2cccc([N+](=O)[O-])c2C)c1	-1	7	-2.2	-1.2	24%	i	-0.7	-6	0.57
C[C@H](CO)N1C[C@H](C)[C@H](CN(C)S(C)(=O)=O)Oc2ccc(NC(=O)c3ccncc3)cc2CC1=O	-2	1	-1.5	·	·	i	-4.4	·	·
O=C(C[C@H]1C[C@@H]2c3cc(NC(=O)NC4CCCC4)ccc3O[C@@H]2[C@H](CO)O1)NCC1CC1	4	2	-3.7	·	·	i	-0.7	·	·
CO[C@@H]1CN(C)C(=O)c2cc(NC(=O)NC3CCCCC3)ccc2OC[C@H](C)N(CC2CC2)C[C@H]1C	-1	-7	0.1	·	·	i	-0.1	·	·
O=C(N/N=C/c1cn[nH]c1-c1ccc(Cl)cc1)c1ccc([N+](=O)[O-])cc1	0	10	-0.6	1.7	30%	i	4.1	-7	·
COc1ccc(C(=O)NNC(=S)NC(=O)c2ccccc2)cc1	-39	-68	-6.9	3.1	·	i	-6.3	35	·
Carrying on:
SMILES	Ecoli rRNA inh	Ecoli rRNA inh OD600	Ecoli rRNA inh RFP	HNF4A DNA FP	Vif A3G	FGF22 binding	AF4-AF9 inh	ALR inh	E coli growth
CSCC[C@H](N)C(=O)N1CCC(C(=O)N[C@H](C)C(=O)Nc2ccc(C(C)C)cc2)CC1	18	19	1.7	-1.3	-1%	i	1.1	-7	0.65
CN(CC(=O)Nc1cccc(Cl)c1)S(=O)(=O)/C=C/c1ccccc1	-57	-78	-18	2.8	-9%	i	-0.2	·	·
Cc1sc(NC(=O)c2ccco2)c(C(c2cccnc2)N2CCN(c3ccc(F)cc3)CC2)c1C (centres undefined)	-1	-12	0.4	-2.4	5%	i	?	-1	0.73
COC(=O)c1c(NC2=NS(=O)(=O)c3ccccc32)sc2c1CCC(C(C)(C)C)C2 (centres undefined)	7	7	20	4.4	·	i	-4.0	·	0.72
CC(C)C(=O)c1cc2c(cc1NC(=O)c1ccccc1)OCCO2	·	·	·	-0.1	1%	·	·	-1	0.65
COc1ccc(-n2nnnc2SCC(=O)Nc2nnn(C)n2)cc1	·	·	·	-1.9	1%	·	·	-2	0.66
CSc1nc(Oc2ccc3ccccc3c2)c2sccc2n1	·	·	·	0.0	-1%	·	·	-1	0.7
Cn1c2ccc(CC(=O)O)cc2c2cc(CC(=O)O)ccc21	·	·	·	-2.0	1%	·	-4.0	-17	0.7
CC(C)CCNc1nc(N)c([N+](=O)[O-])c(NCC2CCCO2)n1 (centres undefined)	·	·	·	1.3	-2%	·	·	12	0.69
CCCC(=O)Oc1ccc(C2NC(=O)c3ccccc3O2)cc1OC (centres undefined)	1	7	0.6	1.7	·	i	0.4	·	0.7
O=C(C1CCC1)N1CCN(c2ccnc3cc(Cl)ccc23)CC1	-13	-16	-0.2	1.0	11%	·	-5.0	-4	0.66
COCCn1c(C)cc(C(=O)CSc2ncnc3sc4c(c23)CCC4)c1C	·	·	·	0.1	?	·	·	·	0.69
c1cnc(SCCCOc2ccc3ccccc3c2)nc1	·	·	·	1.3	5%	·	·	-7	0.75
C[C@H](CO)N1C[C@H](C)[C@H](CN(C)CC2CCCCC2)Oc2c(NC(=O)Nc3ccc(F)cc3)cccc2C1=O	1	4	-1.0	·	·	i	5.0	·	·
CCCCC(=O)NC(Nc1sc2c(c1C(N)=O)CCCC2)(C(=O)OCC)C(F)(F)F (centres undefined)	·	·	·	-0.3	6%	·	·	·	0.7
COc1ccccc1NC(=O)CSc1nnc(CNC(=O)c2ccco2)o1	·	·	·	-0.4	-1%	·	·	·	0.67
COC(C(=O)Nc1ccc(S(=O)(=O)Nc2c(C)cccc2C)cc1)c1ccccc1 (centres undefined)	2	0	-1.2	-4.7	-1%	i	0.0	-1	0.62
COc1ccc(-c2nnc(SCc3ccc(C(=O)O)cc3)o2)cc1OC	-5	-8	-1.3	4.1	-7%	i	0.9	2	0.7
CC(=O)c1ccccc1OCCOCCOCCOc1ccccc1C(C)=O	-22*	0.5*	3.7*	-2.2	-4%	i	0.0	-19	0.66
Nc1c2c(nc3sc4c(c13)CCCC4)CCCCCC2	6	1	-1.3	10	3%	i	-3.9	-3	0.73
CCN(c1ccccc1)S(=O)(=O)c1ccc(OC)c(NC(=O)c2cc(Cl)ccn2)c1	0	0	-1.1	-2.5	-8%	i	-19	·	0.74
COc1ccc(S(=O)(=O)NCC(c2ccc3c(c2)OCO3)N2CCOCC2)cc1C (centres undefined)	3	3	-2.2	0.3	-2%	i	0.4	2	0.69
CC(C)Oc1ccc(CNC(=O)c2cc(S(=O)(=O)N3CCOCC3)cn2C)cc1	2	6	-2.0	4.1	-4%	i	-11	0	0.7
O=C(O)COc1ccc(C(NC(=O)c2c(F)cccc2F)NC(=O)c2c(F)cccc2F)cc1	1	-13	1.9	-0.8	-4%	i	-0.5	·	0.66
O=C(COc1ccc2ccc(=O)oc2c1)NCC(O)c1ccccc1 (centres undefined)	-1	1	-1.0	2.8	·	i	-2.7	-1	0.65

Single records, from the list above.
COc1ccccc1NC(=O)CSc1nnc(CNC(=O)c2ccco2)o1 reads Ecoli rRNA inh = ·; Ecoli rRNA inh OD600 = ·; Ecoli rRNA inh RFP = ·; HNF4A DNA FP = -0.4; Vif A3G = -1%; FGF22 binding = ·; AF4-AF9 inh = ·; ALR inh = ·; E coli growth = 0.67
CSc1nc(Oc2ccc3ccccc3c2)c2sccc2n1 reads Ecoli rRNA inh = ·; Ecoli rRNA inh OD600 = ·; Ecoli rRNA inh RFP = ·; HNF4A DNA FP = 0.0; Vif A3G = -1%; FGF22 binding = ·; AF4-AF9 inh = ·; ALR inh = -1; E coli growth = 0.7
Nc1c2c(nc3sc4c(c13)CCCC4)CCCCCC2 reads Ecoli rRNA inh = 6; Ecoli rRNA inh OD600 = 1; Ecoli rRNA inh RFP = -1.3; HNF4A DNA FP = 10; Vif A3G = 3%; FGF22 binding = i; AF4-AF9 inh = -3.9; ALR inh = -3; E coli growth = 0.73

Following part.
SMILES	Ecoli rRNA inh	Ecoli rRNA inh OD600	Ecoli rRNA inh RFP	HNF4A DNA FP	Vif A3G	FGF22 binding	AF4-AF9 inh	ALR inh	E coli growth
COc1ccccc1C(=O)NCC(=O)Nc1ccc2c(c1)OCO2	6	8	-0.6	0.5	5%	i	1.1	·	0.62
CCN(c1ccc(C)c(C)c1)S(=O)(=O)c1ccc2c(c1)CCN2C(=O)CCC(=O)O	-15	-3	-0.9	2.7	5%	i	-4.4	99*	0.72
COc1ccc(-c2cnnn2-c2ccc(N)cc2)cc1OC	·	·	·	2.8	?	·	·	-17	0.69
CS(=O)(=O)N1CCCC(C(=O)NCc2ccco2)C1 (centres undefined)	9	12	0.9	0.3	0%	i	-3.4	2	0.7
Cn1c(C(=O)N[C@@H](C(=O)O)c2ccccc2)cc2cc(F)ccc21	2	-6	-1.2	2.6	·	i	-7.0	1	0.66
COc1ccc(CN2CSC(=S)N(Cc3ccccc3)C2)cc1	-10	-3	0.1	5.9	5%	i	-0.8	-2	0.66
O=C(COC(=O)/C=C/c1ccccc1Cl)Nc1cccnc1Cl	3	1	-2.5	5.9	·	i	0.8	·	0.69
O=C(Cc1c(O)c2ccccc2[nH]c1=O)NC1CCCCCCC1	·	·	·	4.9	25%	·	·	20	0.72
COc1ccc(Br)cc1CN(C)CC(=O)Nc1cccc(S(N)(=O)=O)c1	-12	-14	-0.2	-3.3	7%	i	1.8	-6	0.64
CO[C@H]1CN(C)C(=O)c2cc(NC(=O)c3ccccc3F)ccc2OC[C@H](C)N(CC2CC2)C[C@H]1C	1	0	-1.1	·	·	i	-1.7	·	·
Cc1ccc(S(=O)(=O)N2C[C@H]3C(=O)C[C@@H](c4cccc5ccccc45)N(S(=O)(=O)c4ccc(C)cc4)[C@H]3C[C@H]2c2ccc(Cl)cc2)cc1	8	10	0.7	-3.6	-7%	i	-0.5	·	·
CCn1cc(CNC(=O)C2CCC(=O)N(C3CCCCCC3)C2)cn1 (centres undefined)	4	8	-0.7	-2.1	·	i	0.1	0	0.69

Shown with two lines to a compound: entries from further up.
Order of values: Ecoli rRNA inh	Ecoli rRNA inh OD600	Ecoli rRNA inh RFP	HNF4A DNA FP	Vif A3G	FGF22 binding	AF4-AF9 inh	ALR inh	E coli growth
> CCn1cc(CNC(=O)C2CCC(=O)N(C3CCCCCC3)C2)cn1 (centres undefined)
  4	8	-0.7	-2.1	·	i	0.1	0	0.69
> COc1ccc(-c2cnnn2-c2ccc(N)cc2)cc1OC
  ·	·	·	2.8	?	·	·	-17	0.69

Screening results (PubChem)

This is a subset (hit frequency here may not be typical).
